# Ecoli growth: blocks Escherichia coli growth; OD600, 23 h; stronger effect = lower value; OD600 absorbance (test concentration not listed); hit rate 0.21% among 330,000; AID 1053175;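 active = OD600 absorbance below the run mean of sample wells minus 3.6 SD, in any replicate, cut at about 0.56 in these data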;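 also: stock transfer was 300 nL into about 60 µL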
# Bfl-1 A1 inh: inhibitors of the anti-apoptotic protein A1, read as caspase activation | MEF A1-2A-BIM cells, Caspase-Glo 3/7 luminescence, 3 h; percent of clofoctol response, vehicle zero | caspase activation, % (concentration not given with the values) | hit rate 0.066% among 330,000;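 active = over half of replicate activation scores above 10%, or exactly half above 10 with the replicate mean above 10; inconclusive = replicate mean below 10 yet half the replicates above 10; inactive = over half of replicates below 10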;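 also: wells of about 30 µL received 50 nL stock; many hits fall short of the cut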
# Vif TR-FRET: inhibitors of Vif binding to APOBEC3G peptide, primary screen, biochemical, TR-FRET, GST-Vif 1-94, biotin-A3G peptide, dose response retest (AID 1117319) | TR-FRET GST-Vif / biotin-A3G peptide binding; higher % means a stronger effect; test concentration not given here; strong numbers were not always called active | inhibition, %; hits with a dose series show IC50 in µM | hit rate 0.57% among 260,000;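 active = above the screen mean plus three standard deviations and confirmed in dose response; inconclusive = results disagree or hit not tested in dose response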;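 also: Vif residues 1-94 fused to GST binding biotinylated APOBEC3G peptide 110-148; 0% = full assay without inhibitor and 100% = GST in place of GST-Vif; retest series ran down from 100 µM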
# LANA-H2B inh: blocks KSHV LANA binding to histone H2A/H2B | inhibition, % (no concentration beside the values) | cell-free LANA-H2A/H2B peptide, fluorescence polarization | Q9QR71 | hit rate 0.6% among 320,000; in the data active = inhibition mostly above about 10%, no sharp cut-off; inactive = mostly below about 6.7%;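 also: stock transfer was 7.5 nL into about 10 µL; 0% = median of vehicle wells and 100% = median of positive control wells; one replicate is shown; the record names a cut of 25% in any replicate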
# Target sequence (Q9QR71 whole entry, looked up): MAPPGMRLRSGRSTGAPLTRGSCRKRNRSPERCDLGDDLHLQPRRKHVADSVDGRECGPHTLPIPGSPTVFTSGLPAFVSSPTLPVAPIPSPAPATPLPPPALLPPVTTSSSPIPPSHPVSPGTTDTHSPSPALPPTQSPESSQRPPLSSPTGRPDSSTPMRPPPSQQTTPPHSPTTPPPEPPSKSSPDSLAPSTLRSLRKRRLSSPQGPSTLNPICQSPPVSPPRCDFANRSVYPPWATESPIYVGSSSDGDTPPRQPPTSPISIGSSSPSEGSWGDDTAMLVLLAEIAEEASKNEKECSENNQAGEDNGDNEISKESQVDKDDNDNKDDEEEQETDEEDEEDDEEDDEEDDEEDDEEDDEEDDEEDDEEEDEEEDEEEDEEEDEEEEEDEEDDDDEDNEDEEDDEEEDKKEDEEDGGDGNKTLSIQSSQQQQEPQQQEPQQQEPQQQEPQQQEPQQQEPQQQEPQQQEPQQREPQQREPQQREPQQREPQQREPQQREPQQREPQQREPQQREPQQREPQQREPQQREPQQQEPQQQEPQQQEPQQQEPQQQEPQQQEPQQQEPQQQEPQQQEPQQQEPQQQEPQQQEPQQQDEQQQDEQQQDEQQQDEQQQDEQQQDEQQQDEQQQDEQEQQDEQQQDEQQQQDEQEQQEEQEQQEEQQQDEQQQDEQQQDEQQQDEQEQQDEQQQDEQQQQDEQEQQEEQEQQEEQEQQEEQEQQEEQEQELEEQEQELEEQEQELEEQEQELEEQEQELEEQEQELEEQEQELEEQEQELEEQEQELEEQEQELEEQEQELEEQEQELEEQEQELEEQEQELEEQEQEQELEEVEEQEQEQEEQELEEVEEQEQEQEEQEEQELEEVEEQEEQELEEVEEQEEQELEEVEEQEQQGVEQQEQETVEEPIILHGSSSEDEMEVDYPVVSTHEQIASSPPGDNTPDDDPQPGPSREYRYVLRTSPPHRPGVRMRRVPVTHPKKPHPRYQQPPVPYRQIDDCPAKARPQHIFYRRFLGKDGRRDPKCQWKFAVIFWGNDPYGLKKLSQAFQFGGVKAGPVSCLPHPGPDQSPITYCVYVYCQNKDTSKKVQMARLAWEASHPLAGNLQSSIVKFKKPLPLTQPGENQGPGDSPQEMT
# UCH37 DUB inh: human UCH37 deubiquitinating enzyme inhibition. Q9Y5K5. purified proteasome/UCH37, Ub-AMC cleavage fluorescence. inhibition, % (test concentration not listed). hit rate 0.33% among 330,000. AID 588478;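 active = mean of two replicates above 20%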;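 also: 0% = compound-free wells with enzyme and 100% = wells lacking proteasome; stock transfer was 100 nL into about 20 µL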
#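 System: Proteasome-associated human UCH37 deubiquitinase; Input: 0.15 nM proteasome in added enzyme buffer; Also added: Ub-AMC substrate from 1 µM stock; Incubation: 30 min compound-proteasome preincubation then 25 min substrate reaction, room temperature; Detection: fluorescence, ex 355 nm, em 460 nm; Read-out: % inhibition of Ub-AMC cleavage fluorescence; Benchmarks: no-proteasome and no-compound wells.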
# B2AR ag: agonists of human beta-2 adrenergic receptor inducing internalization | P07550 | Am2.2-beta2AR cells, FAP receptor internalization, flow cytometry; reference of the scale not given here | response, % (test concentration not listed) | hit rate 0.43% among 340,000 | AID 504454;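 active = response above a set limit, near 3 SD of response in nonfluorescent compounds, cut at about 42% in these data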;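 also: stock transfer was 100 nL into about 11 µL; a reference agonist was the positive control; negative values mostly stem from fluorescent compounds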
# HNF4A DNA FP: change in binding of human HNF4 alpha to DNA | hit rate 0.3% among 360,000 | activity change, % at 10 µM | P41235 | AID 1224865 | HNF4a-FITC DNA binding, fluorescence polarization, 1 h; in the data active = activity change above about 30%, passing the limit was not always enough;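 also: controls were the assay level and a saturating level of protein; the project sought stronger binding though the title names inhibitors; some compounds called inactive have numbers as strong as hits; positive values seem to mean higher polarization but the record does not say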
# Active calls of the source: *; ? = inconclusive; nt = not tested or not shown; & = joins results of further samples.
SMILES,Ecoli growth,Bfl-1 A1 inh,Vif TR-FRET,LANA-H2B inh,UCH37 DUB inh,B2AR ag,HNF4A DNA FP
COC(=O)c1c(NC(=O)C(C)(C)C)sc2c1CCN(Cc1ccccc1)C2,0.7,-0.4,nt,0.4,-0.6,13,3.7
CC(=O)N(Cc1cc2cc(C)c(C)cc2n2nnnc12)CC1COCCO1 (stereo unspecified),0.69,-0.2,6%,1.6,1.6,5,-2.7
Cc1ncc(CN2CCCC(C(=O)Nc3ccc(-c4ccco4)cc3)C2)cn1 (stereo unspecified),0.69,-0.1,nt,-5.6,-0.5,0,13
CCN(CC)S(=O)(=O)c1cccc(NC(=O)CNC2CCCCCC2)c1,0.69,0.0,nt,-5.3,1.5,-18,-1.5
CCCN(CCC)CCCNC(=O)c1cn(CC)c2ccc(S(=O)(=O)N(C)C3CCCCC3)cc2c1=O,0.7,0.7,nt,-2.2,0.7,6,0.3
C=C(C)[C@@H]1CC[C@]2(C(=O)O)CC[C@]3(C)C(CCC4[C@@]5(C)CC[C@H](O)C(C)(C)C5CC[C@]43C)C12 (stereo partly specified),0.8,0.8,nt,-0.3,5.3,9,-0.4
COc1ccc(-c2cc3ccccc3oc2=O)cc1NC(=O)c1ccc(Br)o1,0.69,0.5,25%&-5%,2.2,-62,-3,-1.9
CCCC1=[N+](CC(C)=O)CCn2c(C)ccc21,0.67,-0.6,?,1.9,-16,12,-0.1
CC(C)(C)NC(=O)COc1ccc(-c2ccccc2)cc1,0.69,-3.7,-2%,1.5,1.4,-6,2.8
CCCc1cc(=O)[nH]c(SCc2ccc(C#N)cc2)n1,0.72,-0.2,4%,1.6,4.6,0,1.1
CCOc1ccc(Br)cc1S(=O)(=O)N1CCC(C(=O)O)CC1,0.69,0.6,22%,1.0,3.8,-3,-1.6
S=C(c1ccc(-c2cc(Cl)ccc2Cl)o1)N1CCOCC1,0.72,0.2,-13%,1.1,4.2,-17,1.1
Cc1ccc(S(=O)(=O)N2CCCC2CNC(=O)C(=O)Nc2ccc(F)cc2F)cc1 (stereo unspecified),0.7,0.8,-1%,-2.9,-0.3,3,0.6
COc1ccc(/C=C2\SC(=O)N(CCC(=O)Nc3ccc(S(=O)(=O)Nc4nccs4)cc3)C2=O)cc1,0.74,-1.8,nt,nt,5.9,7,0.4
O=C(Nc1ccc(Cl)cc1C(=O)NCCN1CCOCC1)c1ccc(Cl)cc1Cl,0.66,-1.2,7%,-3.3,-0.5,-9,-1.0
COc1ccc(NC(=O)CCCN2C(=O)C3CC=CCC3C2=O)cc1 (stereo unspecified),0.73,-0.1,nt,0.9,2.1,3,4.4
COc1ccc(-n2nnnc2-c2cccc(OC)c2)cc1,0.74,2.9,0%,-0.5,5.0,19,-0.2
Cc1nc(NC(C)(C)CO)c([N+](=O)[O-])cc1[N+](=O)[O-],0.67,1.3,nt,2.1,9.8,4,1.4
COc1ccc(-n2nc(C(=O)NCC(=O)NC3CCCC(C)C3C)c3ccccc3c2=O)cc1 (stereo unspecified),0.71,0.1,nt,-5.2,-16,-5,3.3
Clc1ccc(COc2ccccn2)cc1Cl,0.75,0.8,0%,nt,4.8,-4,0.8
CCOc1ccccc1-n1nnnc1SCC(=O)NC(=O)NCc1ccco1,0.71,0.6,12%,-3.9,5.1,1,-5.2
O=C(OCCc1cc2ccccc2c(=O)o1)c1cccs1,0.63,-2.5,nt,-5.8,6.1,0,-1.4
O=C(Nc1ccccc1)NC1CCCCC1,0.68,-1.2,-1%,-0.6,1.1,-4,-2.4
CCOc1ccc(C2C(C(C)=O)=C(O)C(=O)N2CCc2c[nH]c3ccccc23)cc1 (stereo unspecified),0.74,-0.4,nt,-2.5,6.7,0,1.9
C/C(=N/NC(N)=S)c1cc2ccc(O)cc2oc1=O,nt,-1.4,1%,-0.3,nt,-21,86
CCN(CC)c1nc(-c2ccccc2)nc2c1sc(=S)n2CC,0.73,0.2,-2%,2.7,8.1,7,-4.3
NC(=O)c1cccnc1Nc1cccc([N+](=O)[O-])c1,0.71,-3.1,13%,nt,5.0,-10,-3.7
CCCn1c(=O)n(C)c(=O)c2c(SCC(=O)NCC(c3ccccc3)N(C)C)nc(CC(C)C)nc21 (stereo unspecified),0.69,0.2,nt,-7.8,0.3,-2,4.9
Cc1nc(-c2ccc(Cl)cc2)sc1C1(C)CC(c2ccccc2)=NO1 (stereo unspecified),0.7,-8.6,nt,-1.7,5.5,5,3.4
CCOC(=O)C1CCCN(C(=O)c2ccccc2Oc2ccccc2)C1 (stereo unspecified),0.65,0.1,23%,1.6,4.1,5,0.5
CCCn1c(SCC(=O)N2CCc3ccccc3C2)nc2c1c(=O)n(C)c(=O)n2C,0.73,0.3,1%,0.3,3.1,-5,0.3
Cn1ncc(Cl)c1C(=O)N1CCN(c2ccc(Cl)c(Cl)c2)CC1,0.71,-0.5,1%,-2.6,4.9,11,-2.7
Cn1c(=O)cc(OCCCC(=O)NC2CCCC2)c2ccccc21,0.68,0.1,25%,-1.0,1.0,1,-0.9
COc1ccc(NC2CCCN(C(=O)CCCN3CCCCC3=O)C2)cc1 (stereo unspecified),0.64,-0.5,-6%,2.1,1.9,-1,-1.0
O=S(=O)(c1ccccc1)c1cc(O)ccc1O,0.69,-1.3,?,1.3,1.9,10,-6.8
CSc1ccc(CN2CCC(n3nccc3NC(=O)CCCc3ccccc3)CC2)cc1,0.63,-0.9,nt,-7.9,2.6,-4,-0.5
COc1ccc(NC(=O)/C=C/c2cccc(F)c2)cn1,0.6,-4.0,nt,8.8,8.7,0,-18
COc1cc(N)ccc1NC(=O)c1cccs1,0.74,-2.1,3%,0.1,1.2,-7,1.3
CC(C)C(NC(=O)C1CCCCC1)C(=O)NCc1ccccn1 (stereo unspecified),0.76,0.2,-1%,0.5,1.0,5,17
CCN1CCN(C(c2cccs2)C(C)NC(=O)c2ccccc2)CC1 (stereo unspecified),0.68,1.4,?,2.7,-0.5,2,1.5
CCc1c(C)nn(C(=O)/C(C#N)=C\N(C)C)c1C,0.64,0.1,-6%,-0.4,-1.6,2,-2.3
CC(C)(C)C1C=C(Sc2ccccc2)C(=O)O1 (stereo unspecified),0.69,-0.5,-6%,-1.8,3.3,37,-0.9
COc1ccc(CNS(=O)(=O)c2cc(OCC(N)=O)c(C)cc2Cl)cc1,0.73,-1.1,6%,-5.5,7.8,0,-1.2
Cc1cccc(C(=O)Nc2sc3c(c2C(=O)O)CCC3)c1,0.7,-7.5,27%,-2.0,7.2,10,0.3
O=C(N/N=C/C(c1ccccc1)c1ccccc1)c1ccccc1F,nt,0.5,0%,-0.4,nt,0,-0.3
C#CCCc1cscc1/C=[N+](\[O-])c1ccc(C(=O)OCC)cc1,nt,-0.5,nt,-0.8,nt,-4,6.2
CCn1nc(C)c(CNC(=O)CC2C(=O)NCCN2CC(C)C)c1C (stereo unspecified),0.66,0.0,10%,0.5,-10,1,-3.2
O=C(NCc1ccc2c(c1)OCO2)C1CCCN(S(=O)(=O)c2cccnc2)C1 (stereo unspecified),0.74,1.1,-2%,-0.8,1.9,-4,-3.8
CCN(CC)S(=O)(=O)c1cc(NC(=O)CNc2c(C)n(C)n(-c3ccccc3)c2=O)ccc1C,0.66,0.6,-9%,-2.7,1.5,-4,4.1
CCOc1ncccc1C(=O)Nc1ccc(F)c(F)c1,0.69,0.5,-6%,5.9,3.4,0,6.3
COc1cccc(-c2nc(CS(=O)CC(=O)NCc3ccc4c(c3)OCO4)c(C)o2)c1 (stereo unspecified),0.69,-0.4,16%,2.6,3.5,-6,5.9
COc1ccc(-c2ccc(=O)n(Cc3ccc([N+](=O)[O-])cc3)n2)cc1,0.64,0.9,5%,1.0,3.1,-5,2.1
Cc1ccc(NC(=O)c2ccc(OCc3c(C)noc3C)cc2)cc1,0.66,0.1,31%,2.2,2.1,nt,nt
COC(=O)CN1C(=S)N(Cc2ccccc2)C(=O)C1CC(=O)Nc1ccc(OC)cc1 (stereo unspecified),0.64,-1.1,nt,-4.9,1.2,-4,0.0
CS(=O)(=O)N(Cc1ccccc1)c1ccc(C(=O)NCC2CCCO2)cc1 (stereo unspecified),0.64,-0.4,?,1.0,5.5,0,-1.2
C[C@@H]1OC(Nc2ccc(N=Nc3ccccc3)cc2)[C@H](O)[C@H](O)[C@H]1O (stereo partly specified),0.65,0.5,?,-2.4,15,-8,4.8
S=C(Nc1ccccc1)N1CCCCCC1,0.72,1.1,2%,1.1,-0.7,0,6.4
O=C(N=Nc1c(O)[nH]c2ccccc12)c1ccc2c(c1)OCO2,0.7,-5.8,-3%,-1.2,6.1,5,1.9
N=c1c(S(=O)(=O)c2ccc(F)cc2)cc2c(=O)n3ccccc3nc2n1CC1CCCO1 (stereo unspecified),0.67,-0.6,nt,3.1,-215,5,-1.6
CCn1c(SCC(=O)Nc2ccc3c(c2)OCO3)nnc1-c1ccccc1O,0.65,-0.6,?,-6.1,5.3,4,16

# 4 entries out of the list above, ordered by the value under B2AR ag, largest number first.
canonical_smiles,B2AR ag
COc1ccc(/C=C2\SC(=O)N(CCC(=O)Nc3ccc(S(=O)(=O)Nc4nccs4)cc3)C2=O)cc1,7
CCn1nc(C)c(CNC(=O)CC2C(=O)NCCN2CC(C)C)c1C (stereo unspecified),1
CCOc1ccc(C2C(C(C)=O)=C(O)C(=O)N2CCc2c[nH]c3ccccc23)cc1 (stereo unspecified),0
COc1cc(N)ccc1NC(=O)c1cccs1,-7

# Returning to the listing, repeating the 4 entries before the break.
SMILES,Ecoli growth,Bfl-1 A1 inh,Vif TR-FRET,LANA-H2B inh,UCH37 DUB inh,B2AR ag,HNF4A DNA FP
S=C(Nc1ccccc1)N1CCCCCC1,0.72,1.1,2%,1.1,-0.7,0,6.4
O=C(N=Nc1c(O)[nH]c2ccccc12)c1ccc2c(c1)OCO2,0.7,-5.8,-3%,-1.2,6.1,5,1.9
N=c1c(S(=O)(=O)c2ccc(F)cc2)cc2c(=O)n3ccccc3nc2n1CC1CCCO1 (stereo unspecified),0.67,-0.6,nt,3.1,-215,5,-1.6
CCn1c(SCC(=O)Nc2ccc3c(c2)OCO3)nnc1-c1ccccc1O,0.65,-0.6,?,-6.1,5.3,4,16
CCOc1ccc2nc(NC(=O)c3ccco3)sc2c1,0.69,-7.9,-1%,-0.5,-11,-8,-1.3
O=C(Cc1ccccc1Cl)N1CCN(c2ccccn2)CC1,0.68,0.5,-4%,-2.2,-0.8,29,2.9
Cc1oc(-c2ccccc2Cl)nc1CS(=O)CC(=O)NC1CC1 (stereo unspecified),0.69,-0.5,-4%,6.1,6.1,0,6.9
CCCNc1nc2c(c(=O)[nH]c(=O)n2C)n1CCCc1ccccc1,0.7,-0.3,-1%,-2.5,4.6,0,-0.4
CCOc1ccc(N(C(=O)c2snc(C(N)=O)c2N)C(C(=O)NCC2CCCO2)c2ccc(C)o2)cc1 (stereo unspecified),0.69,nt,nt,nt,-3.1,-7,1.6
Cc1cccc(CCN2C(N(C)C)=NC[C@@H]2Cc2ccccc2)c1,nt,-1.7,nt,-1.8,3.7,4,-1.0
CN(C(=O)c1ccccc1Cl)c1ccccc1,0.69,0.0,11%,4.1,0.6,-2,-1.1

# Assay outcomes as filed in PubChem.
